# Arbovirus inh = arbovirus infection inhibition; arbovirus infection cell-based antiviral screen; inhibition, % at 10 µM; 0.37% of 200,000 active;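 active = inhibition from about 30%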;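 note: bluetongue infection of BSR cells; cell survival read as ATP light after 72 h; 0% = infected wells without compound and 100% = uninfected wells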
# Mtb bLac sens = beta-lactam sensitization of Mtb H37Rv | M. tuberculosis H37Rv growth with meropenem, percent inhibition; hits of this screen are not shown here | inhibition, % at 25 µM | 0.27% of 330,000 active;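 active = about 74% or more and at least 40 points above the plate without the antibiotic, then above 30% in a dose series; inconclusive = first-round hits that could not be retested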;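 note: growth measured after seven days incubation then overnight dye step; 0% = bacteria only wells and 100% = bacteria with antibiotic; twin plates without the antibiotic show which effects depend on it; some results filed as inactive read as strong as hits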
# YopH inh = YopH (Yersinia) phosphatase inhibition; fluorescence Ex485/Em525; inhibition, %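 (about 10 µM by stock and volumes)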; 0.16% of 140,000 active; AID 898;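 active = inhibition of 50% or more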;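 note: controls were vehicle for no effect and minimum signal wells for full effect; inactives centre near -20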
# Mtb growth = M. tuberculosis H37Rv growth inhibitors, H37Rv strain (AID 1626); inhibition, % at 10 µM, or IC50 in µM where a hit was titrated; 0.95% of 220,000 active; M. tuberculosis H37Rv growth inhibition; higher % means a stronger effect;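 active = confirmed in a dose series; inconclusive = inhibition above 80% but not taken into the dose series; inactive = below 80% or under 30% at every dose of the series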;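 note: bacteria incubated seven days before Alamar blue readout; 0% = bacteria only wells and 100% = bacteria with antibiotic wells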
# RecA intein inh = inhibitors of M. tuberculosis RecA intein splicing; AID 2221; 0.75% of 290,000 active; inhibition, %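 (about 9 µM by stock and volumes)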; cell-free RecA intein splicing, fluorescence; in the data active = inhibition above about 30%; inconclusive = no clear call, values can overlap the other calls;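 note: 0% = vehicle wells and 100% = reference inhibitor control wells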
# Target sequence (P9WHJ3 whole entry, looked up): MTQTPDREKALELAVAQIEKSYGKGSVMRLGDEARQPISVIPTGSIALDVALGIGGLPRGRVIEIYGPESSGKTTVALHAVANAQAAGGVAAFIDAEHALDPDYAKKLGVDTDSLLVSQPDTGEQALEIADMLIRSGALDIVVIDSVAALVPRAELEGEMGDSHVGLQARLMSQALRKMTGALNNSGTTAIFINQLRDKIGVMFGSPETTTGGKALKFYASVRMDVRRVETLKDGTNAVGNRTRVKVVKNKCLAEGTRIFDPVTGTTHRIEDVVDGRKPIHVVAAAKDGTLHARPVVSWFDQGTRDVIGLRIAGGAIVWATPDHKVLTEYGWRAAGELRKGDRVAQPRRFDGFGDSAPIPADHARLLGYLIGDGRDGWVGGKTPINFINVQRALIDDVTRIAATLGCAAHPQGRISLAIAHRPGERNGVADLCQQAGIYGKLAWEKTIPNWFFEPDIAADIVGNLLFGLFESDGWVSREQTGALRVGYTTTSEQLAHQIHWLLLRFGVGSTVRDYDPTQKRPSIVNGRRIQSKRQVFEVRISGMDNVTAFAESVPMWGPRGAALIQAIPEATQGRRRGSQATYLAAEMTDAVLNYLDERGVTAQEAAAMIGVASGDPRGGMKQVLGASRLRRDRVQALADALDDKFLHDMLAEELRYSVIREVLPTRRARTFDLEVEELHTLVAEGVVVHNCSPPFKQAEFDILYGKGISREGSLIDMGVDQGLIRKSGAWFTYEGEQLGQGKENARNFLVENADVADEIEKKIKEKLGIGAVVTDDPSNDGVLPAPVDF
# Arbovirus inh repeat = recorded beside Arbovirus inh, whose call it bears; inhibition, %; measured here: 10K subset replicate screen; many hits read low in the repeat;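 first of two repeat runs on a subset; 0% = infected and 100% = uninfected wells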
# The depositor's hits bear a star; ? = inconclusive; . = no result given.
SMILES,Arbovirus inh,Mtb bLac sens,YopH inh,Mtb growth,RecA intein inh,others
C=CCN(c1ccccc1)S(=O)(=O)c1cccc(C(=O)NNC(=O)c2ccccc2O)c1,.,-5.2,.,.,15.1,
CCOC(=O)c1c(NC(=O)CSc2ncccn2)sc(C(=O)NC)c1C,.,1.2,.,.,-1.3,
N#Cc1ccc(NC(=S)NCCN2CCOCC2)cc1,1.9,-6.2,.,-4.1%,-1.7,
O=[N+]([O-])c1cc2oc3c(c2c(C=NCc2ccncc2)c1O)CCCC3,13.4,.,-31.3,6.5%,.,
COCCSc1ccccc1C(=O)Nc1ccc(S(=O)(=O)N2CCOCC2)cc1,.,0.6,.,.,-0.6,
CC(=O)Nc1ccc(NC(=O)C(Cc2ccccc2)NC(=O)C2CCC(C)CC2)cc1 (stereo unspecified),-13.6,-4.0,-25.5,-1.3%,-2.7,
Cc1nc2ccc(S(=O)(=O)Nc3ccc(-c4nc5cccnc5s4)cc3)cc2s1,-4.9,-5.1,-20.6,.,-1.5,
COc1ccc(C(=O)NCCS(=O)(=O)NC(C)c2ccccc2)cc1 (stereo unspecified),.,-4.7,.,.,-1.8,
N#C/C(=C\c1ccc(-c2cccc([N+](=O)[O-])c2)o1)C(=O)Nc1nc(-c2cccs2)cs1,.,7.8,.,1.5%,-1.1,
Cc1cccc(C)c1NC(=O)CN(C)C(=O)Cc1cccc(C(F)(F)F)c1,.,1.1,.,.,2.7,
CCN1CCN(c2ncnc3sc(C(=O)Nc4ccccc4F)c(C)c23)CC1,11.1,4.0,4.1,-16.6%,-1.9,
Cc1cccc(OCCCn2c(=O)oc3ccc(C)cc32)c1,-16.6,2.9,.,5.5%,.,
CCOC(=O)CN1NC2(CCC(C(C)(C)C)CC2)NC1=S (stereo unspecified),3.6,22.8,13.2,-10.4%,0.5,
O/N=C1\CC/C(=N\O)c2nn(-c3ccc(Cl)cc3Cl)nc21,-4.7,-0.6,-34.9,-7.8%,4.6,
COC(=O)c1ccccc1NC(=O)COC(C)=O,3.1,99.0,-23.9,28.6%,3.0,
O=C(c1ccccc1)N(Cc1ccc(F)cc1)Cc1nc2ccccc2c(=O)[nH]1,2.5,4.3,27.0,4.8%,.,
COc1ccc(NC(=O)CSc2nnc(NC(=O)C3CCC3)s2)c(OC)c1,.,-7.0,.,.,-0.6,
CCOC(=O)c1cn(Cc2ccc(C)cc2)c2cc(F)ccc2c1=O,.,1.1,.,.,0.2,
Cc1ccc(NC(=O)C(Cc2ccccc2)N2C(=O)C3C4CCC(C4)C3C2=O)cc1Cl (stereo unspecified),-3.3,-12.7,-34.6,0.0%,-1.3,
Cc1nn(C)c(C)c1NC(=O)CCCSc1nc(-c2ccco2)cc(C(F)(F)F)n1,-0.1,78.4,-34.5,-2.1%,1.9,

# As a working copy, some entries already given:
SMILES,Arbovirus inh,Mtb bLac sens,YopH inh,Mtb growth,RecA intein inh,others
COc1ccc(C(=O)NCCS(=O)(=O)NC(C)c2ccccc2)cc1 (stereo unspecified),.,-4.7,.,.,-1.8,
N#C/C(=C\c1ccc(-c2cccc([N+](=O)[O-])c2)o1)C(=O)Nc1nc(-c2cccs2)cs1,.,7.8,.,1.5%,-1.1,
Cc1cccc(C)c1NC(=O)CN(C)C(=O)Cc1cccc(C(F)(F)F)c1,.,1.1,.,.,2.7,

# Part of the list above in order of molar mass, rising.
SMILES,Arbovirus inh,Mtb bLac sens,YopH inh,Mtb growth,RecA intein inh,others
COC(=O)c1ccccc1NC(=O)COC(C)=O,3.1,99.0,-23.9,28.6%,3.0,
N#Cc1ccc(NC(=S)NCCN2CCOCC2)cc1,1.9,-6.2,.,-4.1%,-1.7,
Cc1cccc(OCCCn2c(=O)oc3ccc(C)cc32)c1,-16.6,2.9,.,5.5%,.,
CCOC(=O)CN1NC2(CCC(C(C)(C)C)CC2)NC1=S (stereo unspecified),3.6,22.8,13.2,-10.4%,0.5,
O/N=C1\CC/C(=N\O)c2nn(-c3ccc(Cl)cc3Cl)nc21,-4.7,-0.6,-34.9,-7.8%,4.6,
CCOC(=O)c1cn(Cc2ccc(C)cc2)c2cc(F)ccc2c1=O,.,1.1,.,.,0.2,
O=[N+]([O-])c1cc2oc3c(c2c(C=NCc2ccncc2)c1O)CCCC3,13.4,.,-31.3,6.5%,.,
COc1ccc(C(=O)NCCS(=O)(=O)NC(C)c2ccccc2)cc1 (stereo unspecified),.,-4.7,.,.,-1.8,
Cc1cccc(C)c1NC(=O)CN(C)C(=O)Cc1cccc(C(F)(F)F)c1,.,1.1,.,.,2.7,
CCOC(=O)c1c(NC(=O)CSc2ncccn2)sc(C(=O)NC)c1C,.,1.2,.,.,-1.3,
CCN1CCN(c2ncnc3sc(C(=O)Nc4ccccc4F)c(C)c23)CC1,11.1,4.0,4.1,-16.6%,-1.9,
COc1ccc(NC(=O)CSc2nnc(NC(=O)C3CCC3)s2)c(OC)c1,.,-7.0,.,.,-0.6,
CC(=O)Nc1ccc(NC(=O)C(Cc2ccccc2)NC(=O)C2CCC(C)CC2)cc1 (stereo unspecified),-13.6,-4.0,-25.5,-1.3%,-2.7,
COCCSc1ccccc1C(=O)Nc1ccc(S(=O)(=O)N2CCOCC2)cc1,.,0.6,.,.,-0.6,
Cc1nc2ccc(S(=O)(=O)Nc3ccc(-c4nc5cccnc5s4)cc3)cc2s1,-4.9,-5.1,-20.6,.,-1.5,
N#C/C(=C\c1ccc(-c2cccc([N+](=O)[O-])c2)o1)C(=O)Nc1nc(-c2cccs2)cs1,.,7.8,.,1.5%,-1.1,
C=CCN(c1ccccc1)S(=O)(=O)c1cccc(C(=O)NNC(=O)c2ccccc2O)c1,.,-5.2,.,.,15.1,

# Next part.
SMILES,Arbovirus inh,Mtb bLac sens,YopH inh,Mtb growth,RecA intein inh,others
COc1ccccc1CNC(=O)CN(Cc1ccc(Cl)cc1)S(C)(=O)=O,0.7,-12.6,.,2.3%,4.4,
CC(=O)Nc1ccc(S(=O)(=O)N2CCN(c3cc4c(cc3[N+](=O)[O-])n(C)c(=O)n4C)CC2)cc1,-14.0,?,-33.2,-4.3%,2.6,
COc1cc(OC)cc(C(=O)NCc2ccc(-n3cccc3)cc2)c1,-12.8,-9.1,.,6.3%,0.9,
Cc1ccc(S(=O)(=O)N2CCSC2c2ccco2)cc1 (stereo unspecified),2.5,-10.5,-44.4,4.2%,6.7,
Cc1ccc(C2C(C(=O)c3cccs3)=C(O)C(=O)N2c2cccc(C)n2)cc1 (stereo unspecified),.,-2.8,.,-11.4%,1.6,
CCn1c(SCC(=O)c2c[nH]c3ccccc23)nc2cc(S(=O)(=O)N3CCOCC3)ccc21,-5.0,-3.4,-11.6,5.9%,-0.6,
c1ccc(-n2ncc3c(NCCN4CCOCC4)ncnc32)cc1,-4.0,-0.1,-36.2,-7.3%,0.6,
COc1ccc(NC(=O)CCc2nnc3ccc(N4CCC(C)CC4)nn23)cc1OC,.,1.8,.,.,-6.7,
CN(C)S(=O)(=O)c1ccc(C(=O)Nc2ccccc2SCCC#N)cc1,-4.2,-4.2,.,4.6%,-1.5,
COC(=O)c1ccc(C(=O)OC)c(NC(=O)N2c3ccccc3Sc3ccccc32)c1,-15.8,1.7,-54.3,-1.7%,-1.4,
Oc1ccccc1C(=S)N1CCN(C(=S)c2ccccc2O)CC1,.,-3.8,.,.,1.2,
O=C(c1c[nH]c2ccccc2c1=O)N1CCCCCC1,-0.4,-8.8,.,3.1%,-2.5,
COc1cc(C2c3cc4c(cc3C(OC3OC5COC(c6cccs6)OC5C(O)C3O)C3COC(=O)C23)OCO4)cc(OC)c1O (stereo unspecified),.,62.6,.,48.0%,-2.6,
CCOc1nc(-c2ccccc2)c2cc(C)ccc2n1,.,4.9,.,.,-0.6,
O=C(c1ccc(Cl)cc1)c1cc(-c2ccccn2)c(N2CCOCC2)s1,3.9,-1.3,-15.2,12.5%,-25.5,
O=C(Cn1cnc2ccccc2c1=O)Nc1ccc2c(c1)OCO2,-2.7,-3.9,3.7,8.6%,-5.4,
COCCCNC(=O)Nc1ccc2c(c1)N(C)C(=O)CS2,0.5,-13.6,-16.0,-5.3%,0.5,
FC(F)(F)c1cc(-c2cccs2)nc2cc(-c3ccccc3)nn12,-9.1,-2.9,-28.6,6.2%,-52.1,
Cc1ccc(C(=O)N/C(=C\c2cccs2)C(=O)NCc2cccnc2)cc1,30.3*,-0.4,-33.8,-2.2%,-2.5,
Cc1nnc(NC(=O)CSc2nnc(CC(=O)Nc3ccccc3Cl)n2C)s1,.,6.0,.,.,-2.1,
CC(C)NC(=O)c1ccc(Cl)cc1Cl,0.3,0.2,.,0.3%,-1.9,
CCOc1ccc(-c2ccc(NS(=O)(=O)c3cc([N+](=O)[O-])c(C)c([N+](=O)[O-])c3)cc2)nn1,.,-8.5,.,.,-8.6,
Cc1ccc2nc(-c3ccncc3)cc(C(=O)Nc3ccc4c(c3)OCCO4)c2c1,-14.9,1.9,.,0.1%,0.3,
CCN(C(=O)c1ccnc(C(C)(C)C)c1)c1ccccc1,6.3,-12.2,-23.8,-7.7%,-0.6,
CC1CC(C)CN(C(=O)CSc2nnc(-c3ccc(Cl)cc3)o2)C1 (stereo unspecified),6.5,7.6,-0.2,13.6%,-1.6,Arbovirus inh repeat=6.6
Cc1ccccc1OCCC(=O)OCC(=O)c1c(N)n(CC(C)C)c(=O)n(C)c1=O,.,6.3,.,.,3.2,
COc1ccc(C(=O)C[n+]2cccc(Br)c2)cc1,.,12.8,.,-8.8%,3.0,
COc1ccccc1Nc1ncnc2c1oc1ccccc12,0.3,13.8,-9.8,6.0%,0.6,
O=C(Nc1ccc(N2CCN(C(=O)c3ccco3)CC2)cc1)c1cccc(F)c1,-4.6,9.6,-44.0,-1.9%,-3.3,
CCOC(=O)C(C)n1nc(C)c2sc3ccccc3c2c1=O (stereo unspecified),-2.0,-5.3,1.8,1.6%,-3.1,
NC(=O)c1ccccc1NC(=O)C1CCCO1 (stereo unspecified),.,-2.8,.,.,-0.3,
CCc1ccc[n+](-c2[nH]c(=O)sc2/C=N/NC([S-])=Nc2ccccc2)c1,-0.1,-2.3,-13.4,5.2%,-2.4,
CCCNC(=O)c1ccccc1NC(=O)Nc1ccccc1C,-3.9,-4.3,-13.6,-4.5%,0.7,
Cc1ccccc1NC(=S)NCCSc1ccc(Cl)cc1,-14.6,-13.0,.,13.6%,9.0,
CCOc1ccc(OCCn2nnc3ccccc3c2=O)cc1,-1.6,-5.8,.,-2.2%,2.7,
CC1(C)CC(N2CCN(CCO)CC2)=CC(=S)N1,.,-9.3,.,4.0%,-4.5,
COc1ccccc1CCNC(=O)c1nc(-c2cccs2)no1,-2.4,0.2,.,12.6%,8.8,
COc1ccc([N+](=O)[O-])cc1N(CC(=O)Nc1ccccc1C(=O)NC(C)C)S(C)(=O)=O,4.6,0.0,.,5.7%,-3.1,
Cc1ccc(S(=O)(=O)/N=C/c2c(O)ccc3ccccc23)cc1,.,6.9,.,.,-1.5,
CCc1nc(SCC(=O)Nc2ccc(N(C)C)cc2)n[nH]1,.,1.8,.,.,-1.4,
Cc1nc(N2CCN(Cc3nc4ccccc4[nH]3)CC2)c2oc3ccccc3c2n1,-23.9,88.1,-10.3,-2.9%,4.3,
CCOC(=O)C1(CC2CC2)CCN(Cc2cn[nH]c2-c2ccccc2)CC1,6.9,-11.2,.,0.8%,0.8,
Cc1cc(OC(=O)c2ccco2)c2c3c(c(=O)oc2c1)CCCC3,22.9,99.9,-19.7,?,0.8,
CC1=C[C@H]2Cc3cc(C)cc(C)c3S(=O)(=O)[C@@H]2C=C1,-9.0,6.3,-32.0,13.6%,1.5,
C=CCc1cc(/C=C/c2nc(O)c([N+](=O)[O-])c(=O)[nH]2)cc(OC)c1O,9.1,-0.2,.,1.3%,-1.1,
CCCCCCCCn1c2c(c(=N)c3c1CCC3)CCCC2,-26.7,98.4,.,?,.,
CCn1c(CN2CCN(c3ccc(Cl)cc3)CC2)nc2ccccc21,13.3,82.4,4.0,-2.9%,2.6,
Cc1ccc(N(Cc2ccccc2)C(=O)c2ccc(F)cc2)cc1,.,-3.7,.,.,12.2,
COc1ccc2[nH]c(=O)c(CN(C(=O)c3ccco3)C3CCCCC3)cc2c1,5.2,-3.0,-21.4,9.7%,6.6,
O=C(O)CNC(=S)NCc1ccccc1,1.2,-7.0,.,-0.1%,2.1,
C(=N\Nc1nccc(-c2cccnc2)n1)/c1ccccc1,.,-4.2,.,-1.9%,-5.8,
COc1ccc(CCN(Cc2ccccn2)C(=S)Nc2ccc(C)cc2)cc1OC,9.5,2.8,.,5.1%,1.2,

# From PubChem BioAssay

# Only part of the results is shown, so the mix of outcomes need not match the whole.
